T cruzi repl: blocks replication of Trypanosoma cruzi; inhibition, % (test concentration not listed); hit rate 1.4% among 300,000; T. cruzi beta-gal in NIH3T3, luminescence, 90 h;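 active = mean inhibition across valid replicates above about 55%, limit read from the data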;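 also: signal also drops with host cell toxicity which is not excluded here; 0% = plate median of DMSO wells and 100% = zero luminescence signal; higher percent means less beta-gal luminescence so fewer parasites; stock transfer was 50 nL into about 50 µL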
AF4-AF9 inh: inhibitors of human MLL-AF4/AF9 interaction; P42568; AlphaScreen, biotin-AF4 peptide binding to FLAG-AF9; inhibition, % at 10 µM; hit rate 0.47% among 350,000; AID 651704;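 active = every replicate reaching a set inhibition limit, whatever the replicate mean, cut at about 25% in these data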;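 also: 0% = plate neutral control median and 100% = total signal loss; the record names both 10 and 1 µM as test concentration; the first replicate is given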
Target sequence (P42568 whole entry, looked up): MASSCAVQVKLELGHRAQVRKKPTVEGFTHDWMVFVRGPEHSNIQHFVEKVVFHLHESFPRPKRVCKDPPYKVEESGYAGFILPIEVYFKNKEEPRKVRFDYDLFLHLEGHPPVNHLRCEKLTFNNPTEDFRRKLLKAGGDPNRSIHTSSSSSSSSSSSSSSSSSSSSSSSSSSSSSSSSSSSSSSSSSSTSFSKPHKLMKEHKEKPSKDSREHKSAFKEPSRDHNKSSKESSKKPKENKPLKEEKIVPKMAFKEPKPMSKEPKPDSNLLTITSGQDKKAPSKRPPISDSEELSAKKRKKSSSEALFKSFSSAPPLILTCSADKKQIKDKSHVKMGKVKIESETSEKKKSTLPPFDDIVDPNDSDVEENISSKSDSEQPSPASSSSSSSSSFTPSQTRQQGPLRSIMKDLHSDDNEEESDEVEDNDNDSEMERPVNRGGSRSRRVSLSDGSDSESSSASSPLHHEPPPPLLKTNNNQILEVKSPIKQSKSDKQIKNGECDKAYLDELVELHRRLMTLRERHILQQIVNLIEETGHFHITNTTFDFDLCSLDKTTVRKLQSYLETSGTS
Beta cell apopt: beta cell apoptosis inhibition | INS-1E cytokine-induced death, ATP luminescence, 48 h; percent of positive-control rescue, neutral wells zero | protection from apoptosis, % (test concentration not listed) | AID 435005 | hit rate 0.8% among 300,000;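 active = all replicates at 75% or more, or half of them and the mean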;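 also: 0% = cytokine-treated negative control wells and 100% = positive control rescue; higher means more ATP so stronger rescue from cytokine killing; wells of about 40 µL received 100 nL stock; the first replicate is given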
E coli growth: blocks Escherichia coli growth; hit rate 0.21% among 330,000; OD600 absorbance (test concentration not listed); OD600, 23 h; active compounds read low;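 active = OD600 absorbance below the run mean of sample wells minus 3.6 SD, in any replicate, cut at about 0.56 in these data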;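 also: stock transfer was 300 nL into about 60 µL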
rRNA inh HTS: inhibits bacterial ribosomal RNA function over humanized ribosomes; E. coli WT GFP vs humanized-ribosome RFP mutants, fluorescence, 24 h; active compounds read low; DMSO median 0, no signal -100; GFP signal change (wild-type ribosome), % (no concentration beside the values); hit rate 1.6% among 350,000;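 active = significant combined selectivity score with lowered wild-type GFP, culture density cut under 30%, mutant RFP and density less affected; inactive = any of these conditions unmet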; also: one replicate is shown; some compounds called inactive have numbers as strong as hits
A1 inh: inhibitors of the anti-apoptotic protein A1, read as caspase activation; MEF A1-2A-BIM cells, Caspase-Glo 3/7 luminescence, 3 h; percent of clofoctol response, vehicle zero; caspase activation, % (no concentration beside the values); hit rate 0.066% among 330,000;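 active = over half of replicate activation scores above 10%, or exactly half above 10 with the replicate mean above 10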;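 also: wells of about 30 µL received 50 nL stock; many hits fall short of the cut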
UCH37 DUB inh: blocks the human deubiquitinase UCH37; inhibition, % (no concentration beside the values); hit rate 0.33% among 330,000; purified proteasome/UCH37, Ub-AMC cleavage fluorescence; Q9Y5K5;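 active = mean of two replicates above 20%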;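 also: 0% = compound-free wells with enzyme and 100% = wells lacking proteasome; stock transfer was 100 nL into about 20 µL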
Target sequence (Q9Y5K5 whole entry, looked up): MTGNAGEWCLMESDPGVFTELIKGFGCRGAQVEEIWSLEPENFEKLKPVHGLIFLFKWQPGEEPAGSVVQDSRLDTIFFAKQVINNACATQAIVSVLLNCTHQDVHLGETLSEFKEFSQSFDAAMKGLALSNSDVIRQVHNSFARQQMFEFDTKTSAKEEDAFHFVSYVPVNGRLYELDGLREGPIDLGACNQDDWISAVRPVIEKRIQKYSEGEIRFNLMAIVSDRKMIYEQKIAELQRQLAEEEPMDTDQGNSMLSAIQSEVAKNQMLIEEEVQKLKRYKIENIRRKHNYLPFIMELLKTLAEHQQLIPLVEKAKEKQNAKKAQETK
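Material: human UCH37 enzyme supplied as purified proteasome complex / Amount: 0.15 nM proteasome as dispensed / Buffer or medium: pH 7.4 Tris-HCl (50 mM) with ovalbumin, ATP-MgCl2, DTT / Times: preincubation 30 min, reaction 25 min, room temperature / Technique: AMC fluorescence from Ub-AMC cleavage, excitation 355 nm, emission 460 nm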
FGF22 binding: shifts melting point of recombinant human FGF22 | hit rate 1.5% among 340,000 | Q9HCT0 | calls only at 9.99 µM | AID 651658 | recombinant FGF22 thermal shift, SYPRO orange fluorescence; percent of sucrose octasulfate shift, DMSO zero;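 active = melting point raised past a set limit in the mean and every replicate; three in four hits are not shown here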
Target sequence (Q9HCT0 whole entry, looked up): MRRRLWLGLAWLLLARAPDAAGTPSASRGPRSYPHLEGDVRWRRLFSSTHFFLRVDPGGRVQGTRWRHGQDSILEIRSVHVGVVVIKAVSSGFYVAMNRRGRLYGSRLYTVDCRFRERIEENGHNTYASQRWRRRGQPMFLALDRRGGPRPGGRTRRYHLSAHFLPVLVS
rRNA inh HTS OD600: also measured in rRNA inh HTS; calls as there; OD600 change, %; measured here: OD600 growth;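 optical density of the mix in the first replicate; 0 = DMSO median and -100 = no signal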
rRNA inh HTS RFP: recorded beside rRNA inh HTS, whose call it bears; RFP signal change, %; measured here: RFP humanized mutant strains;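 first replicate; 0 = DMSO median and -100 = no signal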
* hit, by the source's call; i = inactive; . = no result given; & = joins results of further samples. Only part of the results is shown, so the mix of outcomes need not match the whole.

Values in the order: T cruzi repl	AF4-AF9 inh	Beta cell apopt	E coli growth	rRNA inh HTS	rRNA inh HTS OD600	rRNA inh HTS RFP	A1 inh	UCH37 DUB inh	FGF22 binding
1) C=CCn1c(C)nnc1SCC(=O)NC1CC1
    5	-0.8	.	0.7	0	9	-0.7	-0.7	2.1	i
2) CC(Cc1cccs1)NC(=S)Nc1ccc(Cl)cc1 (centres undefined)
    -2	4.2	5	0.66	-55	-74	-22	-0.3	5.7	i
3) COc1ccc(-c2cc(C(F)(F)F)nc(-n3ccnc3C)n2)cc1
    -13	.	-3	0.63	.	.	.	0.2	-16	.
4) Cc1ccc(C2NC(=O)c3sc(=S)n(-c4ccccc4)c3N2)cc1 (centres undefined)
    -4	-1.0	4	0.67	-20	-15	-0.1	0.7	5.7	i
5) CCC(=O)/C=C1\Sc2ccc(OC)cc2N1CCO
    -5	.	-5	0.7	.	.	.	0.2	17	.
6) O=C(N/N=C/c1ccc([N+](=O)[O-])cc1)c1cc2ccccc2o1
    1	1.6	-6	.	10	14	0.3	0.3	.	i
7) C#CCOCCOCCOCCNc1nc(N2CCN(C(=O)[C@H](CCC(=O)O)n3cc([C@@H](N)[C@H](C)CC)nn3)CC2)nc(N2CCN(C(=O)[C@H](CCC(=O)O)n3cc([C@@H](N)CCSC)nn3)CC2)n1
    .	0.1	-7	0.68	21	22	-1.3	0.5	1.5	i
8) CS(=O)(=O)N(Cc1ccc(Cl)cc1)c1ccc(C(=O)NCCC2=CCCCC2)cc1
    40	.	2	0.76	.	.	.	2.4	4.6	.
9) NC(=O)CC(NC(=O)c1ccc(Br)cc1)c1ccc(NC2CCCCCC2)c([N+](=O)[O-])c1 (centres undefined)
    22	-3.9	-7	0.62	9	14	-7.4	0.1	0.0	i
10) O=C(O)c1ccc2c(c1)N(Cc1ccccc1)C(=O)c1ccccc1S2=O (centres undefined)
    1	-1.8	-1	0.73	-5	-8	0.0	0.6	3.7	i
11) COC(CNC(=O)C1CCC(CNS(=O)(=O)c2c(C)cc(C)cc2C)CC1)OC (centres undefined)
    -9	3.5	-3	0.68	16	8	0.7	0.1	2.3	i
12) COC(=O)C1CC2(C(=O)OC)CC(C(=O)OC)(CC(C(=O)OC)C2=O)C1=O (centres undefined)
    .	-43	.	0.69	9	8	0.4	.	2.3	i
13) O=C(NC1CCCC1)C(c1ccc(F)cc1)N(Cc1ccc(Cl)cc1)C(=O)CCl (centres undefined)
    3	2.4	-7	.	-11	-20	-5.3	-1.2	0.2	i
14) O=C(CCNS(=O)(=O)c1ccccc1)NNC(=O)COc1ccc(Cl)cc1
    .	-2.8	.	0.66	5	13	-1.1	.	0.5	i
15) CCCN(CCC)C(=O)NC1CC(=O)N(c2ccc(OC)cc2)C1 (centres undefined)
    -14	.	-8	0.69	.	.	.	-1.1	-15	.
16) COCCN(C(=O)CSc1nncn1-c1ccccc1)c1c(N)n(Cc2ccccc2)c(=O)[nH]c1=O
    -13	-1.4	-3	0.67	4	8	1.1	0.4	3.9	i
17) O=C(Cc1ccc(-n2c(=O)c3ccccc3n(Cc3ccc(F)cc3)c2=O)cc1)NCC1CCCO1 (centres undefined)
    -11	-9.0	-7	0.69	4	8	4.3	0.8	1.3	i
18) Cc1cc(S(=O)(=O)NCc2ccccc2)ccc1OCC(=O)NCc1ccccn1
    2	0.2	-4	0.7	-3	-15	-1.1	0.0	1.4	i
19) O=C(/C=C/c1ccccc1)Nc1cc(S(=O)(=O)N2CCOCC2)ccc1N1CCOCC1
    .	0.9	.	0.68	10	10	-1.1	.	5.9	i
20) Cc1ccc(-n2nc(C)c3c2OC(N)=C(C#N)C3c2ccco2)cc1 (centres undefined)
    -5	.	-6	0.71	.	.	.	0.3	3.4	.

Next part (two carried over from the part before).
Values in the order: T cruzi repl	AF4-AF9 inh	Beta cell apopt	E coli growth	rRNA inh HTS	rRNA inh HTS OD600	rRNA inh HTS RFP	A1 inh	UCH37 DUB inh	FGF22 binding
19) O=C(/C=C/c1ccccc1)Nc1cc(S(=O)(=O)N2CCOCC2)ccc1N1CCOCC1
    .	0.9	.	0.68	10	10	-1.1	.	5.9	i
20) Cc1ccc(-n2nc(C)c3c2OC(N)=C(C#N)C3c2ccco2)cc1 (centres undefined)
    -5	.	-6	0.71	.	.	.	0.3	3.4	.
21) Cc1ccc(N(C)S(=O)(=O)c2csc(C(N)=O)c2)cc1C
    2	0.3	-19	0.65	-4	-14	0.8	0.2	-0.4	i
22) CC(C)[C@H](NC(=O)N1CCn2c1nc1ccccc12)C(=O)NC1CCCCC1
    2	-0.1	1	0.62	-3	4	3.0	1.3	2.9	i
23) CCCCNC(=O)Cc1ccc(C)cc1
    -3	9.4	-5	0.71	-19	-9	3.4	-0.5	4.2	i
24) Cc1sc(NC(=O)c2cc(-c3ccc(Cl)cc3)nc3ccccc23)c(C(N)=O)c1C
    .	.	57	0.72	.	.	.	-0.2	3.0	.
25) Cc1ccc(NC(=O)C(=O)NCc2ccc(/C=N/NC(=O)c3c(C)nc4ccccn34)o2)cc1
    -1	-2.7	-3	.	10	4	-2.4	-1.6	.	i
26) COc1ccccc1C(=O)Nc1ccc(S(=O)(=O)N2CCOCC2)cc1
    0	.	-3	0.7	.	.	.	-0.8	2.9	.
27) COc1cc(Cl)ccc1OCc1cc(C(=O)N(C)Cc2cccc3cnccc23)no1
    25	-4.7	.	0.71	-1	-21	18	-1.2	5.1	i
28) O=C(NCc1nnc2c(C(F)(F)F)cc(Cl)cn12)c1cccnc1
    2	-12	2	0.72	1	5	0.5	-0.1	-2.3	i
29) Cc1cccc(C)c1NC(=O)COC(=O)/C=C/c1ccc(S(=O)(=O)N2CCOCC2)cc1
    .	-0.1	-9	0.68	12	17	-0.2	0.0	0.9	i
30) O=C(COC(=O)c1cccc(S(=O)(=O)N2CCCC2)c1)Nc1ccccc1
    0	1.4	.	0.67	-3	-5	3.1	-0.9	6.5	i
31) Cc1ccc(Nc2n[nH]c(C)c2[N+](=O)[O-])cc1C
    -1	.	2	0.67	.	.	.	-4.3	1.5	.
32) N/C(=N\OC(=O)c1cc(Cl)ccc1Cl)c1cccnc1
    -14	.	-3	0.73	.	.	.	-1.2	4.1	.
33) COCCNC(=O)CSc1nc2cc3c(cc2c(=O)n1CCCC(=O)NCCc1ccc(OC)c(OC)c1)OCO3
    -3	-3.1	1	0.69	-1	-15	-2.8	0.3	-0.1	i
34) Cn1c(=O)c([N+](=O)[O-])c(NCc2ccccc2)c2ccccc21
    19	.	3	0.69	.	.	.	-0.6	1.5	.
35) CN1CCN(Cc2nc3ccccc3n2C)CC1CCO (centres undefined)
    -1	-0.4	.	0.71	11	11	1.0	-0.4	5.6	i
36) CC(C)C(c1nnnn1CCc1ccccc1)N1CCOCC1 (centres undefined)
    0	.	-5	0.71	.	.	.	-0.6	4.8	.
37) COc1ccc(C(=O)N2CCN(S(=O)(=O)c3ccccc3)CC2)c(OC)c1
    -8	.	1	0.68	.	.	.	0.3	3.9	.
38) COc1ccc(-n2nnnc2SCC(=O)c2cc3ccccc3o2)cc1
    18	.	0	0.71	.	.	.	0.5	0.0	.
39) CN(C)S(=O)(=O)N1CCN(CC(O)COc2ccc(C(=O)c3ccccc3)cc2)CC1 (centres undefined)
    3	.	11	0.78	.	.	.	-0.6	3.4	.
40) CC1(C)CN2C(=O)c3ccccc3C2(C)S1 (centres undefined)
    -23	-0.8	0	0.72	14	8	-1.1	0.4	0.2	i

The listing continues.
Values in the order: T cruzi repl	AF4-AF9 inh	Beta cell apopt	E coli growth	rRNA inh HTS	rRNA inh HTS OD600	rRNA inh HTS RFP	A1 inh	UCH37 DUB inh	FGF22 binding
41) COc1cccc(-c2ccc(NC(=O)C3CCCN(Cc4cnc(C)n4C)C3)cc2)c1 (centres undefined)
    18	17	-2	0.7	-14	-17	-3.3	0.3	0.2	i
42) COc1ccc(CNC(=O)C(NS(=O)(=O)c2ccc3c(c2)CCCN3C(C)=O)C(C)C)cc1 (centres undefined)
    .	.	-4	0.64	.	.	.	0.4	1.5	.
43) CC(C)CCOP(=O)(c1ccc(N(C)C)cc1)C(O)c1ccccc1 (centres undefined)
    4	2.2	0	0.69	-1	-7	3.0	1.0	2.6	i
44) Cc1ccc(-c2cccc(C(=O)NCCc3ccccc3)n2)c2ccccc12
    -8	3.1	-8	0.7	.	.	.	0.4	3.5	i
45) COc1ccc(S(=O)(=O)N(C)C[C@H]2Oc3ccc(NC(=O)NC4CCCCC4)cc3C(=O)N([C@H](C)CO)C[C@@H]2C)cc1
    .	-1.6&-14	-2	.	0&4	7&1	1.3&1.1	-0.1	.	i
46) Cc1ccc2c(c1)C1CN(C)CCC1N2S(=O)(=O)c1ccc(C#N)cc1 (centres undefined)
    .	3.6	.	0.64	.	.	.	.	0.0	i
47) COc1ccc(CNC(=O)Cn2cnc3c(OCc4ccccc4)ncnc32)cc1
    .	-0.9	-7	0.69	12	17	1.5	1.1	0.5	i
48) O=C(CNC(=O)c1ccc(Cl)cc1Cl)OCn1nnc2ccccc2c1=O
    -9	-0.4	2	0.7	4	4	0.9	-1.4	3.9	.
49) O=C(CSc1nc2ccccc2n1Cc1ccccc1)N/N=C/c1ccccc1C(=O)O
    -14	2.1	-2	.	-15	-14	-0.3	0.1	.	i
50) CC(C)CNC(=O)/C=C/C=C/c1ccc2c(c1)OCO2
    .	-0.5	.	0.69	.	.	.	.	-45	i
51) Cn1c(=O)[nH]c(Nc2ccccc2)c([N+](=O)[O-])c1=O
    5	0.3	.	0.68	9	13	3.2	1.5	18	.
52) CN(C)C(=O)c1ccc(OCC(F)(F)F)nc1
    -9	-2.8	-1	0.67	12	-1	0.7	4.0	-0.5	i
53) COc1cccc(COC(=O)c2cc(S(=O)(=O)N3CCCCC3)ccc2N2CCOCC2)c1OC
    19	-10	8	0.72	5	-1	-0.2	0.2	3.5	i
54) Cc1cccc(C)c1NC(=O)CN1C(=O)S/C(=C\c2cccn2C)C1=O
    -4	.	-9	0.68	.	.	.	0.0	1.8	.
55) Cc1cccc(-n2nc(C)c3c(C(=O)O)cc(-c4cccs4)nc32)c1
    -4	1.4	-4	0.67	-36	-47	-0.8	0.7	-52	i
56) Cc1ccc(NC(=O)CN(C)c2ccc(S(=O)(=O)N3CCN(C)CC3)cn2)cc1
    3	.	-2	0.72	.	.	.	0.4	1.1	.
57) O=C(Nc1ccccc1-c1nc2ccccc2[nH]c1=O)c1cccs1
    1	0.5	-3	0.72	-4	-8	7.7	0.4	4.8	i
58) CCCCC(=O)Nc1ccc(C(=O)Nc2ccc(S(=O)(=O)N3CCCC3)cc2)cc1
    10	.	1	0.75	.	.	.	-0.1	0.1	.
59) Cc1onc(-c2ccccc2)c1C(=O)NCc1cccc(Cl)c1
    -2	1.5	-6	0.73	7	15	-0.4	0.7	3.6	i
60) COCCCNC(=O)CC(NCCCOC)C(=O)O (centres undefined)
    -8	.	0	0.65	.	.	.	-0.5	0.8	.
61) O=C(CCC1CCCCC1)Nc1c2c(nn1-c1ccc(F)cc1)CS(=O)C2 (centres undefined)
    7	.	0	0.76	.	.	.	-0.8	5.3	.
62) O=C(c1cc2cc(Cl)ccc2[nH]1)N1CCN(C(=O)c2ccco2)CC1
    -6	-1.2	1	0.69	1	0	-1.6	-1.3	0.6	i
